Compound activity from PubChem BioAssay.
Bst PK mod = alters activity of Bacillus stearothermophilus pyruvate kinase; partly purified Bacillus stearothermophilus pyruvate kinase, luminescence ATP production; ribose 5-phosphate activator present at AC10; Potency, µM; 51,000 compounds, 1.2% hits; AID 361; in the data active means potency below about 11 µM; inconclusive means mostly about 12 µM to 25 µM; inactive means weaker than that;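 the screen sought inhibitors and activators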;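 further: potency means the concentration at half of the fitted maximal effect; scaled between full activation by ribose 5 phosphate and full inhibition by luteolin; about four in five hits inhibit and the cells do not say which; series up to 57 µM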
TsaE inh = YjeE (TsaE) inhibition, E. coli. P0AF67. purified YjeE, fluorescence polarisation of a bound ADP probe. Potency, µM. 71,000 compounds, 0.05% hits. AID 605; active = well fitted falling curve; inconclusive = weaker or top-dose-only fall, or a rising curve; inactive = flat or poorly fitted curve;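 further: top concentration of the series not given in the record; excess ADP was the control for the full effect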
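Purified YjeE (10 uM) with BODIPY Texas Red-labeled ADP probe (2 uM); compounds pin-transferred, 15 min at room temperature. Binding inhibition read as decreased fluorescence polarization; ADP titration as control.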
* = called active by the depositor; i = inactive; · = no result given. A portion of the library, so the mix of outcomes need not match the whole.

SMILES	Bst PK mod	TsaE inh
CCOC(=O)/C=C1\SCC(=O)N1CC(=O)NC1CCCCC1	>57	i
C=CCn1c(SCC(=O)c2cc(C)n(Cc3cccs3)c2C)nnc1-c1ccncc1	>57	i
CCN(CC)c1ccc(C(=S)N2CCN(c3ccccc3)CC2)cc1	>57	i
Cc1ccc(N2CC(C(=O)NCc3ccc4c(c3)OCO4)CC2=O)cc1C (stereo not drawn)	>57	i
CCC(=O)c1ccc(OCC(O)CN2C(=O)NC(C)(C)C2=O)cc1 (stereo not drawn)	·	i
Cc1ccc(NS(=O)(=O)c2ccc(NC(=O)C3CCCO3)cc2)cc1 (stereo not drawn)	>57	i
Cc1ccc(NCc2nnc(SCC(=O)N(Cc3ccccc3)C(C)(C)C)o2)c(C)c1	>57	i
COc1ccc2c(c1)c1ncn(CCN3CCCC3)c(=O)c1n2C	·	i
COc1ccccc1NC(=O)C(C/C=C(\C)Cl)C(C)=O (stereo not drawn)	·	i
COc1ccccc1C1/C(=C(/O)c2ccc(C)cc2)C(=O)C(=O)N1Cc1ccco1 (stereo not drawn)	>26	·
Cc1onc(-c2ccccc2Cl)c1C(=O)N1CCN(C/C=C/c2ccccc2)CC1	·	i
O=S(=O)(c1cccc(C(F)(F)F)c1)N1c2ccccc2-n2cccc2[C@H]1c1cccnc1	·	i
O=C(CN(Cc1cccs1)C(=O)CSc1nnc(COc2ccccc2)o1)NC1CCCC1	>57	i
O=c1cc(C23CC4CC(CC(C4)C2)C3)[nH][nH]1	>57	i
COCCNc1nc(C)nc2c1nc(-c1ccccc1)n2CCCN1CCCCC1C (stereo not drawn)	·	i
Cn1nnnc1SCC(=O)Nc1ccccc1N1CCOCC1	>57	i
CN(C)c1nccc(Nc2ccccc2)c1C#N	·	i
COc1cc2[nH]c(=O)n(CCC(=O)N3CCc4ccccc4C3)c(=O)c2cc1OC	>57	i
CS(=O)(=O)c1ccc([C@H](O)[C@H](CF)NC(=O)C(Cl)Cl)cc1	·	i
CCCn1c(=O)c2ccccc2n2c(Sc3nnnn3-c3ccccc3)nnc12	>57	i

Random excerpt: two entries already listed.
SMILES	Bst PK mod	TsaE inh
O=S(=O)(c1cccc(C(F)(F)F)c1)N1c2ccccc2-n2cccc2[C@H]1c1cccnc1	·	i
COc1ccc2c(c1)c1ncn(CCN3CCCC3)c(=O)c1n2C	·	i

New compounds follow
SMILES	Bst PK mod	TsaE inh
O=C1c2oc3ccccc3c(=O)c2C(c2cccnc2)N1CCCN1CCOCC1 (stereo not drawn)	>57	i
COCc1cc(C)nc(N2CCc3ccccc32)c1C#N	>57	i
CC(=O)NC1=NC(=O)CS1	>57	i
c1ccc(-n2ncc3c(NCCN4CCCCC4)ncnc32)cc1	·	i
CC(=O)Nc1cc2c(cc1C(C)=O)OCCO2	>57	i
O=C(Nc1cccc(-c2nnc(-c3ccccc3)o2)c1)c1ccco1	>57	i
Cc1ccc2cc(C#N)c(NCCNC(=O)C3CC3)nc2c1C	>57	i
COCCCNC(=O)C1CCN(S(=O)(=O)c2c(C)noc2/C=C\c2ccc(OC)cc2)CC1	>57	i
COC(=O)c1ccc(C2C(C(=O)OCC(C)C)=C(C)N=C3SCCC(=O)N32)cc1 (stereo not drawn)	>57	i
COc1ccc(OC(=O)c2ccncc2)cc1	>11	i
CCOC(=O)c1[nH]c(CSc2nnnn2-c2ccccc2C)c(C(=O)OCC)c1C	>57	i
NC(=O)C1(N2CCCCC2)CCN(c2ccc3nnc(-c4ccccc4)n3n2)CC1	·	i
O=C(CSc1nnc(-c2ccncc2)n1Cc1ccco1)OC1CCCCC1	>57	i
Cc1ccc(CCNC(=O)NC(C)(C)C)cc1	>57	i
CN1C(=O)C2(c3ccccc31)N(C)CC(c1ccccn1)C21SC(=S)N(Cc2ccco2)C1=O (stereo not drawn)	>57	i
CCC(C)(C)n1nnnc1CN(Cc1cc2cc(OC)c(OC)cc2[nH]c1=O)C1CCCC1	>11	i
Cc1oc(C(C)(C)C)cc1C(=O)Nc1ccc(C(=O)O)cc1	·	i
CCOC(=O)c1sc(=S)n(Cc2ccccc2)c1N	>57	i
CCOC(=O)c1c(NC(=O)CSc2nnc(CNc3ccc(F)cc3)o2)sc(C(C)=O)c1C	>57	i
CCCCOC(=O)c1ccc(Nc2ncnc3nc[nH]c23)cc1	·	i
CCc1ccc(CN2C(=O)CCC2(C)C(=O)NC2CCCC2)cc1 (stereo not drawn)	>57	i
COc1ccc(CNc2ccc3c(c2)nc(C)n3C)cc1	·	i
CCc1nc2c(sc3nc4c(cc32)COC(C)(C)C4)c(=O)n1Cc1ccco1	>57	i
CCOC(=O)CC(C#N)c1cn(C)c2ccccc12 (stereo not drawn)	>26	·
CC(=O)N1CCN(S(=O)(=O)c2cccc(C(=O)Nc3nc4ccccc4[nH]3)c2)CC1	>57	i
Clc1ccc(-c2nnc3sc(-c4ccc(Br)o4)nn23)c(Cl)c1	>57	i
CCOC(=O)N1CCN(c2c(NCCN3CCN(Cc4ccccc4)CC3)c(=O)c2=O)CC1	·	i
O=C(COC(=O)c1ccc[nH]c1=O)NCC1CCCO1 (stereo not drawn)	>57	i
C[C@@H](C(=O)Nc1ccc2ccccc2c1)[C@H]1C[C@]1(C)[C@H](NC(=O)c1cccnc1)c1ccccc1	·	i
CCCCCN(C(=O)NC(=O)Nc1ccccc1C)S(C)(=O)=O	>57	i
CCOC(=O)c1csc(NC(=O)CSc2nnnn2-c2ccc(OCC)cc2)n1	>57	i
COCc1cc(C)nc(SCC(=O)Nc2cccc(C)c2)c1C#N	>57	i
O=C(CCN1C(=O)C2C3C=CC(C3)C2C1=O)Nc1ccc(F)cc1 (stereo not drawn)	>57	i
CC(=O)NC(C)C12CC3CC(CC(CC(=O)O)(C3)C1)C2 (stereo not drawn)	>57	i
CC(C)=CC(=O)NCCc1ccccc1	·	i
Cc1ccc(S(=O)(=O)NCCC(=O)NCc2ccc3c(c2)OCO3)cc1C	i	i
Cn1c(=N)n(CC(=O)C(C)(C)C)c2ccccc21	>57	i
NCC[C@H](N)C(=O)O	·	i
Cc1cc(C(=O)CSc2nnnn2-c2ccccc2)c(C)n1CC1CCCO1 (stereo not drawn)	>57	i
ON1C(c2ccccc2C(F)(F)F)N(O)[C@H]2CCCC[C@H]21 (stereo partly drawn)	>57	i
CCOc1cc(C(=O)Nc2ccon2)cc(OCC)c1OCC	>57	i
COc1ccc(NS(=O)(=O)c2ccc(N)cc2)nn1	>26	i
CCC(OC(=O)C(NC(=O)c1ccccc1)c1ccccc1)C(=O)Nc1cc(C)on1 (stereo not drawn)	·	i
Cc1ccc(N(CC(=O)NCc2cccnc2)S(C)(=O)=O)cc1C	·	i
CCOC(=O)c1cnn(-c2nc(C)cc(C)n2)c1N	>57	i
C[C@@]1(C(NC(=O)c2ccc(-c3ccccc3)cc2)c2ccc(Cl)cc2)C[C@H]1C1CCCCC1 (stereo partly drawn)	·	i
COC(=O)CCn1nnc(-c2cccs2)n1	>57	i
CCCCC1(C)NC(=O)N(CC(=O)Nc2ccc(S(=O)(=O)N3CCOCC3)cc2)C1=O (stereo not drawn)	>57	i
COc1ccc(C2SCC(=O)N2c2c(C)n(C)n(-c3ccccc3)c2=O)cc1 (stereo not drawn)	·	i
CCc1ccccc1Nc1nc(N)nc(COC(=O)c2cccn2C)n1	>57	i
Clc1ccc(NCn2cncn2)nc1	·	i
Cc1oc(-c2cccc(Cl)c2)[n+]([O-])c1C	>57	i
Cc1ccc(CCNC(=O)C2CCC(=O)N2C(C)C)cc1 (stereo not drawn)	>57	i
O=C(CN1C(=O)c2ccccc2C1=O)Nc1cccnc1	>57	i
CN(C)CCCN1C(=O)C(=O)/C(=C(/O)c2ccc3c(c2)OCO3)C1c1ccccn1 (stereo not drawn)	>57	i
CCOC(=O)c1[nH]c(C)c(/C(C)=N\O)c1C	·	i
Cc1ccc(OCCCC(=O)Nc2ccc(N3CCOCC3)cc2)c(C)c1	>57	i
CCSc1nc2c(c(=O)[nH]1)C(c1cccnc1)C(C(=O)OC(C)C)=C(C)N2 (stereo not drawn)	>57	i
CCn1c(C(C)NC(=O)c2ccc(OC)c(OC)c2)nc2ccccc21 (stereo not drawn)	>57	i
Cc1cc2cc(CCNC(=O)CC(C)C)c(=O)[nH]c2cc1C	·	i

More results.
SMILES	Bst PK mod	TsaE inh
Cn1c(=O)c2c(nc(CN3CCC(C(N)=O)CC3)n2Cc2ccccc2F)n(C)c1=O	>57	i
CCOC(=O)C1=C(C)NC(C)=C(C(=O)OCC)C1C(=O)OC1CCOC1=O (stereo not drawn)	>57	i
CC1CCCN(C/C(O)=C(\C#N)c2nc3ccccc3[nH]2)C1 (stereo not drawn)	>57	i
Cc1nn(Cc2ccccc2Cl)c(C)c1NC(=O)c1cc(-c2ccc(F)cc2)on1	>57	i
COC(=O)c1ccc(NC(=O)N2CCOCC2)cc1	>57	i
COC(=O)CC1C(=O)NCCN1C(=O)Nc1ccccc1 (stereo not drawn)	>57	i
NCCN1C(=O)c2ccccc2[C@@]1(O)c1ccc(Cl)cc1	·	i
Cc1cc(C#N)c2ccccc2n1	>57	i
COc1ccc2[nH]cc(C(=O)CN3CCC(C)CC3)c2c1	>57	i
CCOC(=O)c1c(C)oc2cc(Br)c(O)c(Br)c12	·	i
COC(=O)c1cccc(NC(=O)CSc2nnc(COc3cccc(C)c3)n2C)c1	>57	i
COc1ccc(Cl)cc1NC(=O)C1CCCN(c2cc(C)nc3ncnn23)C1 (stereo not drawn)	>57	i
COc1ccc(OC)c(CN2C(=O)CCC2(C)C(=O)NC2CCCCCC2)c1 (stereo not drawn)	>57	i
COc1ccccc1NS(=O)(=O)c1ccccc1C#N	>57	i
N#CC1=C(N)OC2=C(C(=O)CCC2)C1c1ccccc1 (stereo not drawn)	·	i
CCOC(=O)c1sc(C)c2c1NC(C)(c1cccs1)NC2=O (stereo not drawn)	>57	i
CN1CCN(c2nc(-c3ccccc3C(F)(F)F)nc3ccccc23)CC1	·	i
COc1cc(NS(=O)(=O)c2ccc(Br)cc2)c(OC)cc1NC(=O)c1ccco1	>57	i
COc1ccc([N+](=O)[O-])c2c1CCN2C(=O)CC[C@H](N)C(=O)O	·	i
COc1ccc(S(=O)(=O)Cc2ccc(C(=O)N3CCCC3)o2)cc1	·	i

Some values from above.
For Bst PK mod, COc1cc(NS(=O)(=O)c2ccc(Br)cc2)c(OC)cc1NC(=O)c1ccco1 shows >57
For Bst PK mod, CC1CCCN(C/C(O)=C(\C#N)c2nc3ccccc3[nH]2)C1 (stereo not drawn) shows >57

The list continues:
SMILES	Bst PK mod	TsaE inh
CCOc1ccc(-n2nnc3c(=O)n(CC(=O)N4CCCc5ccccc54)cnc32)cc1	·	i
CCn1c(=O)cc(SCC(=O)NCc2ccco2)c2ccccc21	·	i
COc1ccc(-c2cc(C(F)(F)F)nc(SCC(=O)N3CCOCC3)n2)cc1OC	>57	i
NC(=O)C1(N2CCCCC2)CCN(C(=O)c2cccn3c(=O)c4cc(Cl)ccc4nc23)CC1	>57	i
O=C(O)[C@H]1CCc2ccc3ccccc3c2[C@H]1c1cccc2ccccc12	·	i
O=c1[nH]c(CSc2nnc(-c3ccncc3)n2Cc2ccco2)nc2ccccc12	>57	i
Cc1oc(C)c(C(=O)O)c1COc1ccc(C(=O)O)cc1	>57	i
Cn1c(=O)n(CC(=O)N2CCN(c3nnc(-c4ccccc4)c4ccccc34)CC2)c2ccccc21	>57	i
O=C(c1cc(-c2ccc(Cl)c(Cl)c2)on1)N1CCCCC1	>57	i
COC(=O)n1c(SC)nc2ccccc21	>57	i
O=C(CSc1n[nH]c(-c2ccccc2)n1)c1ccccc1	·	i
CN1CCN(CCCNC(=O)C2CC(=O)N(C3CCCCC3)C2)CC1 (stereo not drawn)	>57	i
Cc1ccc(CN(C)C(=O)c2ccccc2Oc2ccccc2)o1	>57	i
COC(=O)C(C)n1cnc2c(cnn2-c2ccc(Cl)cc2)c1=O (stereo not drawn)	·	i
COc1ccccc1-c1cn[nH]c(=S)n1	>57	i
COCCn1c(N)c(NCc2ccccc2)c(=O)n(CC(=O)Nc2cc(C)ccc2C)c1=O	>57	i
CC(=O)NC12CC3CC(C1)CC(C(=O)Nc1nccs1)(C3)C2	>57	i
O=S1(=O)N=C(Nc2nc3c(s2)CCCC3)c2ccccc21	4.5*	i
COCCCN1C(=O)C(=O)/C(=C(/O)c2ccc(OC)cc2)C1c1ccc(O)c(OC)c1 (stereo not drawn)	>57	i
COc1ccccc1-n1c(SCC(N)=O)nnc1-c1ccccc1	>57	i
O=C1c2ccc(-c3nc4ccccc4o3)cc2C(=O)N1Cc1cccnc1	>57	i
CCOc1ccccc1-c1nc(-c2ccc(C)nc2OC)no1	·	i
Cc1ccccc1OCc1nc(-c2ccc(NC(=O)c3ccc4c(c3)OCO4)cc2)no1	>57	i

Full records, looked up by structure. Screens in order: Bst PK mod	TsaE inh
Results for O=C(COC(=O)c1ccc[nH]c1=O)NCC1CCCO1 (stereo not drawn) = >57	i
Results for CC(=O)NC1=NC(=O)CS1 = >57	i
Results for CCOC(=O)c1c(C)oc2cc(Br)c(O)c(Br)c12 = ·	i
Results for CCCCC1(C)NC(=O)N(CC(=O)Nc2ccc(S(=O)(=O)N3CCOCC3)cc2)C1=O (stereo not drawn) = >57	i
Results for CCOC(=O)c1sc(=S)n(Cc2ccccc2)c1N = >57	i
